Screening results deposited in PubChem by several laboratories.
UUG fidelity: alters start codon recognition fidelity in yeast | 350,000 tested, 0.13% active | activity score, % at 18.7 µM | S. cerevisiae UUG-firefly luciferase reporter, luminescence/redox ratio;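 active means replicate mean at a twofold rise or more, about +100% in these data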;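 further: firefly luciferase made from a UUG start codon reports start codon fidelity; reporter light over untreated wells divided by growth signal over untreated wells; some hits fall short of that in this replicate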
CSC inhib: cancer stem cell inhibition | cancer stem cell-like cells viability, luminescence | AID 2717 | inhibition, % at 7.5 µM | 300,000 tested, 1.1% active;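 active means mean at 75% or more and at least half the replicates too; inconclusive means mean and replicates disagree; tested in HMLE shEcad cells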;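 further: 0% = median of negative and 100% = median of positive control wells; the first replicate is given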
PABP FP inh: blocks human PABP binding to poly(A) RNA; P11940; fluorescence polarization; inhibition, % at 35 µM; 290,000 tested, 1% active;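 active means 50% or more with normal probe brightness, or confirmed in later tests; inconclusive means above 50% with abnormal brightness, or retests that disagree; inactive means below 50% or failed in later tests; about a fifth of its hits are not listed in these tables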;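 further: calls also rest on retests at 20 µM and on dose response follow-up; controls were probe without protein and protein plus probe with vehicle; some compounds called inactive have numbers as strong as hits; many hits fall short of the cut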
Rce1 inh: blocks yeast Ras-converting enzyme | Q03530 | yeast membranes, quenched prenylated peptide cleavage fluorescence | calls only | 290,000 tested, 0.27% active;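 active means fall in fluorescence gain of 50% or more versus controls, with final raw signal at or below 3038400; inconclusive means same 50% fall but final raw signal above 3038400; inactive means fall in fluorescence gain under 50%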;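 further: plate controls were neutral control wells for no effect and wells lacking membranes for full effect; tested at 10 µM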
Target sequence (Q03530 whole entry, looked up): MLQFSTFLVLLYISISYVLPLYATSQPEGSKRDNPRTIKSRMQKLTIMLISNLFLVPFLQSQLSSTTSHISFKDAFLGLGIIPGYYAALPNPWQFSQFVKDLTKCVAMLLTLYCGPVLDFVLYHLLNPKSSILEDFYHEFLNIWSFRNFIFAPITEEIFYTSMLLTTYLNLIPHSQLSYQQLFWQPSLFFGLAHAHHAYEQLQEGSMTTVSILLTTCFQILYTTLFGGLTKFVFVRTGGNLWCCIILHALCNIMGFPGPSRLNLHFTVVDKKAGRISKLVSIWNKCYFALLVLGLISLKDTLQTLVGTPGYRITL
Env fusion inh: HIV envelope-mediated fusion inhibition; HeLa-JRFL Env/CEM21 cell fusion, luciferase; inhibition, % at 12.3 µM; 360,000 tested, 1.1% active; AID 651610;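 active means mean replicate inhibition score of at least 50 and every replicate individually at or above 50; inconclusive means only one of the two criteria met; inactive means mean below 50 and not all replicates reaching 50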;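 further: 0% = plate neutral controls and 100% = maraviroc near 300 nM; one replicate is shown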
eIF4H inh: inhibitors of RNA binding by human eIF4H. Q15056. eIF4H fluorescence polarization binding assay. 290,000 tested, 0.94% active. AID 2012. inhibition, % at 35 µM;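 active means 50% or more with normal probe brightness, or confirmed in later tests; inconclusive means above 50% with abnormal brightness, or retests that disagree; inactive means below 50% or failed in later tests; about a fifth of its hits are not listed in these tables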;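 further: calls also rest on retests at 20 µM and on dose response follow-up; 0% = protein and probe with vehicle and 100% = probe without protein; strong numbers were not always called active; many hits fall short of the cut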
MT1-MMP act inh: MT1-MMP (human) activation inhibition; GFP/RFP ratio change, % at 20 µM; AID 651647; HT1080 RFP-PRO-GFP cells, GFP/RFP ratio fluorescence, overnight; percent of plate control window, DMSO zero; P50281; 360,000 tested, 0.061% active;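 active means GFP/RFP ratio change of at least 30% with cell ATP level not reduced by more than half and red fluorescence within 50% of control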; further: strong numbers were not always called active
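Assay system: RFP-PRO-GFP reporter HT1080 cells; read-out basis: GFP/RFP fluorescence ratio; benchmarks: DMSO wells and RFP-L50D-GFP cells; doses: 20 µM single dose, 1% DMSO; schedule: overnight cell settling, then overnight compound exposure, 37 °C, 5% CO2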
eIF4H inh retest: also measured in eIF4H inh; calls as there; inhibition, %; compound at 20 µM; confirmation average;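 mean of two retest wells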
PABP FP inh retest: recorded beside PABP FP inh, whose call it bears; inhibition, %; compound at 20 µM; confirmation repeats;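 mean of two retest wells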
MT1-MMP act inh RFP: recorded beside MT1-MMP act inh, whose call it bears; RFP signal change, %; measured here: RFP expression control read;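 0 = vehicle wells; hits needed this value within 50% of zero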
* marks the source's active call; other numbers are inactive results; i = inactive; ? = inconclusive; / = not tested or not shown; & = joins results of further samples; [ ] = dose if it differs, or a comment.

SMILES	UUG fidelity	CSC inhib	PABP FP inh	Rce1 inh	Env fusion inh	eIF4H inh	MT1-MMP act inh	MT1-MMP act inh RFP	others
COc1ccccc1CN(C)CC(=O)Nc1cccc(S(=O)(=O)N2CCCC2)c1	-17	-20	/	/	4	/	1	-6
Cc1cc(NC(=O)CSc2ncnc3sccc23)no1	-12	/	3	i	-3	3	0	1
Nc1nc(CN2CCN(c3ccc(F)cc3)CC2)nc(N2CCCc3ccccc32)n1	-33	-9	-5	i	-54	11	-4	1
c1ccc2c(c1)ccc1[nH]c3c(c12)CCCC3	-12	/	/	/	-15	/	4	9
Cc1[nH][nH]c(=O)c1C(c1ccc(-c2ccc(C(=O)O)cc2)o1)c1c(C)[nH][nH]c1=O	/	/	-3	/	-9	2	-4	2
COc1ccc(C(=O)N/C(=C\c2ccco2)C(=O)NCCCn2ccnc2)cc1	1	/	1	i	/	16	3	8
CC(=O)c1ccc(N2CCN(C(=S)Nc3ccccc3C(F)(F)F)CC2)cc1	/	-6	-20	i	21	2	2	-20
O=C(CSc1nc2c(cnn2-c2ccccc2)c(=O)[nH]1)N1CCOCC1	-14	7	-9	i	/	-9	1	2
O=C(/C=C/c1cccc(Cl)c1)Nc1ncccn1	/	-30	5	i	-8	-12	-4	-5
c1ccc(N2CCN(Cc3cnc(N4CCOCC4)s3)CC2)cc1	0	-18	22	i	6	-1	-3	-16
CC(C)NC(=O)c1n[nH]c(=O)c2ccccc12	-8	8	-3	i	3	-4	-6	-7
Cc1ccc(CNS(=O)(=O)c2cc3c(cc2C)N(C)CCO3)cc1	6	-2	-10	i	1	-5	2	-1
C[C@@H]1CN([C@@H](C)CO)C(=O)c2cc(C#Cc3ccccc3)cnc2O[C@@H]1CN(C)Cc1ccccn1	-5&-30&-22	/	/	/	14&10[16.7 µM]	/	-1	4
O=C(Cc1cccs1)NCc1cccc(Br)c1	-18	-2	-16	i	-30	-12	-1	2
CCNc1nc(NCC)nc(N/N=C(\C)c2ccc(OC)cc2)n1	/	-7	6	i	-19	6	7	-1
COC(=O)c1cc(C(=O)OC)cc(N2C(=O)CC(Sc3nc(C)cc(C)n3)C2=O)c1 (configuration not stated)	9	-3	-7	i	/	-7	1	1
COc1ccc2sc(-c3ccc(SC)cc3)c(/C=C/c3ccc(OC)c(OC)c3)c2c1	13	-5	/	/	13	/	0	-1
CN(C)CCCn1c(SCC(=O)N2c3ccccc3Sc3ccccc32)nc2ccccc2c1=O	-8	30	-8	i	-2	-4	-20	-15
CC1CCN(C(=O)CN(CCc2ccccc2)S(C)(=O)=O)CC1	-4	-7	-13	i	-44	-3	2	1
Cc1cnc(C(=O)OCC(=O)Nc2cccc(Cl)c2)cn1	-3	-20	-5	i	/	2	1	5
COc1ccc(/C=C/C(=O)N2CCCC2)cc1OC	/	/	-2	i	4	-2	2	8
COc1ccccc1NC(=S)NCc1cccnc1	/	-32	-4	i	20	1	6	6
COc1ccc(C2C=C(C34CC5CC(CC(C5)C3)C4)NC(=S)N2)cc1 (configuration not stated)	/	-12	1	/	-36	-4	0	-1
c1ccc(C2(CN3CCNC[C@H]3Cc3cccc4ccccc34)CC2)cc1	0	15	/	i	-5	/	-2	7
CC(=O)Nc1ccc(NC(=O)C(C)Sc2nc3nc(C)cc(C)n3n2)cc1 (configuration not stated)	-5	/	/	i	9	/	-3	2
CC(=O)N1C[C@H]2CON(C)[C@H]2C[C@H]1c1ccc(-c2ccc(C#N)cc2)cc1	-9	/	/	/	-2	/	0	-2
OC1(c2ccccc2)CNCCc2ccccc21 (configuration not stated)	-24	2	11	i	5	1	-3	0
CC(C)(C)c1cccc(C2(O)C(=O)c3ccccc3C2=O)c1O	/	-19	-1	i	4	-1	0	-3
COc1cccc(NC(=O)C2CCCN(S(=O)(=O)c3cccc4nonc34)C2)c1 (configuration not stated)	/	-12	6	i	11	-2	-4	-1
C=C(CO)C1Cc2cc(C(C)=O)ccc2O1 (configuration not stated)	-25	-10	12	/	/	16	-1	4
O=C(COc1cccnc1[N+](=O)[O-])N1CCc2ccccc2C1	/	-8	-10	i	5	-1	-2	1
O=S(=O)(C/C(=C/CO)S(=O)(=O)c1ccccc1)c1ccccc1	-4	3	-3	i	i	-2	-5	1
O=C(CN(Cc1ccccc1Cl)C(=O)c1csnn1)NCc1ccc(F)cc1	9	-7	-5	i	6	-6	2	1
Cc1nnc(NC(=O)CN2CCN(Cc3ccccc3)CC2)s1	-9	-15	1	i	8	-17	-1	3
C[C@@]12C(=O)Nc3ccc(Cl)cc3C(=O)N1[C@H]1c3ccccc3OC[C@@H]1[C@@H]2c1ccccc1	-10	-17	/	/	/	/	-30	-26
CC1(C)CC(=O)c2sc(NC(=O)C(C)(C)C)nc2C1	/	-4	-5	i	-22	6	1	-3
COCCN1CCc2[nH]c(=S)[nH]c(=O)c2C1	/	-1	0	i	-19	-8	2	8
CCOC(=O)c1c(NC(=O)CN2C(=O)NC(C)(c3ccc(Cl)cc3)C2=O)sc(C(=O)NC)c1C (configuration not stated)	/	-35	34	i	-5	-15	-2	-4
Cc1sc2ncnc(N3CCC(C(=O)NNC(=O)COc4cccc(C(F)(F)F)c4)CC3)c2c1C	/	-10	/	i	32	/	-2	-5
Cc1cccc(C(=O)Oc2ccccc2-c2nnco2)c1	-4	4	78	i	/	-6	6	5	eIF4H inh retest=-9;PABP FP inh retest=-2
Cc1c(NC(=O)/C(=C\c2ccccc2)NC(=O)c2ccccc2)c(=O)n(-c2ccccc2)n1C	-17	-2	-3	i	14	-6	-2	-1
O=C(CSCC(=O)OCn1nnc2ccccc2c1=O)Nc1ccc(Cl)cc1	1	-3	4	i	/	5	1	2
COc1cccc2c(SCC(=O)N/N=C/c3ccc(O)cc3O)cc(C)nc12	/	/	-2	i	-3	-1	-2	-10
CSCC(=O)Nc1ccc(F)c(Cl)c1	/	-12	5	i	6	-6	-2	1
Cc1ccc(C(C2=C(O)CC(C)(C)CC2=O)C2C(=O)CC(C)(C)CC2=O)s1 (configuration not stated)	-2	5	13	i	-26	4	0	4
CCN(C(=O)COC(=O)c1ccc(=O)n(Cc2ccccc2)n1)C1CCS(=O)(=O)C1 (configuration not stated)	-7	/	/	/	-1	/	1	1
COC(=O)c1ccc(C2NC(=O)NC(C)=C2C(=O)N(C)C)cc1 (configuration not stated)	4	-14	-2	i	/	-9	3	3
CC(C)(C)c1cc[n+](CC(=O)Nc2cc(C(F)(F)F)ccc2N2CCOCC2)cc1	/	4	-12	i	6	2	0	-1
Cc1ccc(S(=O)(=O)N2CCCC2CNC(=O)C(=O)Nc2ccc(F)cc2F)cc1 (configuration not stated)	3	/	/	i	-19	/	4	-3
Cc1cc(Nc2ccc(C)c(C)c2)n2ncnc2n1	-22	/	/	/	-54	/	5	1
N#Cc1ccccc1NC(=O)c1ccc2c(c1)OCO2	-16	4	-1	/	-27	2	-1	0
Oc1ccc(C[C@H]2CNCCN2CC2CCCCC2)cc1	-1	34	/	i	16	/	0	2
COc1ccccc1N1CCN(C(=O)c2ccc(Br)s2)CC1	23	-5	-2	i	/	-15	-5	-4
Cc1cccc(CN2CCN(CC(=O)NCCCN3CCN(c4ccc(F)cc4)CC3)C2=O)c1	14	-3	-3	i	59*	-4	4	-10
O=C(N/N=C/c1ccc(Cl)cc1)Nc1ccccc1	-16	-13	-9	i	-187	-6	1	-1
COC(=O)C1=C(C)N(C)C(C)=C(C(=O)OC)C1c1ccc(Cl)cc1	-4	-10	-14	i	/	0	7	2
COc1ccc(C(=O)N/N=C/c2sc(N3CCOCC3)nc2-c2ccccc2)cc1OC	-7	7	-12	i	-22	38	5	4
O=C(/C=C/c1cccs1)Nc1ccc(N2CCOCC2)c(S(=O)(=O)Nc2cc(Cl)ccc2Cl)c1	-7	32	4	i	-27	4	-4	1
S=c1nc(-c2ccccc2)n(-c2ccccc2)[nH]1	-16	-17	1	i	12	-9	-2	2
O=C1CN(C(=O)c2ccccc2F)C(c2ccc(F)cc2)c2cc(F)ccc2N1 (configuration not stated)	/	-12	0	i	11	-4	-3	-1

Additional compounds.
SMILES	UUG fidelity	CSC inhib	PABP FP inh	Rce1 inh	Env fusion inh	eIF4H inh	MT1-MMP act inh	MT1-MMP act inh RFP	others
CC(C)(C)C1CCC(=NNC(=O)c2ccco2)CC1 (configuration not stated)	5	5	2	i	-6	-7	-2	3
CC(C)CC(=O)Nc1ccc(Oc2ccc(NC(=O)CC(C)C)cc2)cc1	-19	2	-17	i	-51	-10	5	4
Cc1cc(C)n2nc(C(=O)NNC(=O)c3ccc(Cl)cc3)nc2n1	/	-13	3	i	-7	-8	3	9
O=C(NNc1ccccc1F)c1ccccc1	-25	58	10	i	-18	21	3	6
CCN1CCN(c2ccc(NC(=O)c3cc4ccccc4cc3OC)cc2C)CC1	-9	/	/	/	-47	/	-2	1
COc1cc(/C=C2\SC(=Nc3c(C)n(C)n(-c4ccccc4)c3=O)NC2=O)ccc1O	-10	/	0	/	0	23	-28	3
Cc1ccnc(NC(=O)c2ccc(Cl)s2)c1	-8	-18	2	i	/	-1	-3	0
CC(=O)Oc1ccc2ccccc2c1C(NC(=O)Cc1ccccc1)c1ccccc1Cl (configuration not stated)	-3	53	5	i	-31	2	-28	-28
COc1ccc(C(=O)N/C(=C\c2cn(C)c3ccccc23)C(=O)N2CCN(C)CC2)cc1	-1	5	/	i	-2	/	-1	5
CC1=C(C(=O)OC(C)C)C(c2cccs2)n2ncnc2N1 (configuration not stated)	-23	-4	-4	i	-17	8	4	1
CCOC(=O)C(NC(=O)c1ccc(Cl)cc1Cl)(Nc1ccc(C)cc1)C(F)(F)F (configuration not stated)	-8	10	8	i	11	1	-2	0
O=C(CCCc1ccccc1)N=C1SC2CS(=O)(=O)CC2N1c1ccccc1 (configuration not stated)	-22	-9	/	i	10	/	1	-1
Cc1cc(-c2ccccc2)nc2oc(C(=O)NN)c(N)c12	-4	-10	5	i	-9	2	0	7
O=C1NNC(=O)C1c1ccccc1	-12	-6	21	i	7	29	0	0
Cc1ccc(C)c(N2CCN(C(=O)CCS(=O)(=O)c3ccc4c(c3)NC(=O)CO4)CC2)c1	-9	12	-2	i	8	-1	0	-29
COc1cc2c(cc1OC)C(c1ccccc1N)=NCC2	0	-5	-5	i	7	-10	8	-3
CCN(CC)C(=O)C1CC(=O)OC12CCCCC2 (configuration not stated)	/	-10	-3	i	2	-10	-1	-9
O=C(CSc1nc2ccc(Cl)cc2[nH]1)NCCc1ccc(Cl)cc1	-22	40	-3	i	20	0	-8	-6
CSCC(C)N1CCC(n2nccc2NC(=O)CCCc2ccccc2)CC1 (configuration not stated)	-15	-9	?	i	1	?	-14	4
COc1ccc(-n2c(SCC(=O)Nc3ccc4c(c3)OCO4)nc3c(c2=O)SCC3)cc1	20	-6	-16	i	1	-5	-8	-1
NC(=O)C1CCN(C(=O)CCSc2ccc(Cl)cc2)CC1	5	-9	-3	i	-21	-4	3	-1
CC1(C)CC(c2nc(-c3ccc(Cl)cc3)cs2)CCS1 (configuration not stated)	-17	28	3	i	/	-20	4	-2
c1ccc2c(c1)CCN(c1nc3cc4c(cc3s1)OCCO4)C2	-83	/	12	i	-64	7	4	-5
